Screening data deposited in PubChem BioAssay by National Center for Advancing Translational Sciences (NCATS).
TRPV1 PAM = HTS Assay for Compounds that Act as Potentiators of the Vanilloid Receptor 1; TRPV1-expressing cells, Fluo-8 calcium influx, capsaicin EC20 potentiation; host cell line not named in the record; control for the full effect not named in the record; AID 540277, 2011; 0.02% of 320,000 active; potentiation, % at 8.33 µM; Transient receptor potential cation channel subfamily V member 1 (Homo sapiens), Q8NER1; active means potentiation above 80%; inconclusive means 30% to 80%; inactive means below 30%; further: 0% is about no effect
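Cells expressing TRPV1 were dye-loaded with Fluo-8 and read kinetically: 10 s baseline, 3 min after compound (agonist portion), then 2 min after EC20 capsaicin (allosteric enhancer portion). Calcium-bound dye fluorescence at 480/520 nm.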
D2 potentiator = Beta-Arrestin HTS for Positive Allosteric Modulators of the Human D2 Dopamine Receptor: Potentiators | D(2) dopamine receptor (Homo sapiens), P14416 | DiscoveRx D2 beta-arrestin cells, luminescence, 90 min; 100% = 57 uM dopamine signal | potentiation, % (test concentration not listed) | 0.23% of 360,000 active | AID 624464, 2012; active = potentiation of 50% or more; inconclusive = 30% to 50%; inactive = 30% or less;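 further: compound concentration not given in the record; tested on top of an EC20 dose of dopamine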
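D2 cells co-treated with compound plus 50 nM dopamine (EC20) for 90 min at 37 deg C to detect potentiation. Beta-arrestin recruitment was read as enzyme-fragment luminescence after 1 h at ambient temperature. Full response was set by 57 uM dopamine.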
Six1-Eya2 inh = qHTS Assay for Inhibitors of the Six1/Eya2 Interaction; activity change, % (concentration not given with the values); Homeobox protein SIX1 (Homo sapiens) + Protein phosphatase EYA2 (Homo sapiens), …; 0.56% of 360,000 active; AlphaScreen GST-Six1/His-Eya2 binding, biochemical; active compounds read low; control for the full effect not named in the record; AID 651725, 2012; in the data active = activity change below about -65%; inconclusive = about -30% to -65%; inactive = above about -30%; further: on the % scale 0 is the no-effect control and ±100 the full control effect
Target sequence (O00167 whole entry, looked up): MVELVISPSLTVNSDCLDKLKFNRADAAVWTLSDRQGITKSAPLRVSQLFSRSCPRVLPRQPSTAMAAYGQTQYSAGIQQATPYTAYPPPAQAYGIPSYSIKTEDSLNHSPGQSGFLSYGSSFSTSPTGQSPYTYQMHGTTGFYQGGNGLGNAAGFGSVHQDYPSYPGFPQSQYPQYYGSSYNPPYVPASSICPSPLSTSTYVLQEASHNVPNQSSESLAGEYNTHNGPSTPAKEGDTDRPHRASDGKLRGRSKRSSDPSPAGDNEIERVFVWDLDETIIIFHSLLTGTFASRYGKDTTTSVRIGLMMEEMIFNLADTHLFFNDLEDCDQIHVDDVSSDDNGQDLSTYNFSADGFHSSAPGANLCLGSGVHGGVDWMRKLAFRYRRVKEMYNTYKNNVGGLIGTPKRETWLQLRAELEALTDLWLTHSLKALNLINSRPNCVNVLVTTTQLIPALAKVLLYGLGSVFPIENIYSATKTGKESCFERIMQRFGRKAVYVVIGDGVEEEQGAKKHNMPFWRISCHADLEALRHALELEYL
Target sequence (Q15475 whole entry, looked up): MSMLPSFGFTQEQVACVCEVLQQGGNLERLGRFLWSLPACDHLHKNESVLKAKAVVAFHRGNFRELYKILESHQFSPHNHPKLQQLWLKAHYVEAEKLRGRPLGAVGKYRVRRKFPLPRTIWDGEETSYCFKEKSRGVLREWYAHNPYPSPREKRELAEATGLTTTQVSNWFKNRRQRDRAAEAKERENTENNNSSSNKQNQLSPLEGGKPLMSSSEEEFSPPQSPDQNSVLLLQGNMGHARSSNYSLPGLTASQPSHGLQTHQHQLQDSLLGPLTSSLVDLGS
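GST-Six1 + His-Eya2 (5X stock: 250/500 nM); Tris pH 8.0, 300 mM NaCl, 0.05% BSA, 0.02% Tween 20; GSH donor/Ni acceptor beads; 1 h 37 °C dark; AlphaScreen readout.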
CtBP-E1A blk = qHTS Assay for Inhibitors of the CtBP/E1A Interaction. CtBP / adenovirus E1A interaction (AlphaScreen). AlphaScreen GST-E1A/His-CtBP binding, 1536-well; active compounds read low; control for the full effect not named in the record. activity change, % (test concentration not listed). 0.49% of 340,000 active. AID 651724, 2012; in the data active means activity change below about -65%; inconclusive means about -30% to -65%; inactive means above about -30%; further: on the % scale 0 is the no-effect control and ±100 the full control effect
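AlphaScreen with 125 nM GST-E1A and 125 nM His-CtBP (5X stocks) in Tris pH 8.0, 300 mM NaCl, BSA, Tween 20, TCEP. Compounds preincubated 2 h at 37 deg C, then glutathione donor/nickel acceptor beads added for 1 h at 37 deg C in dark.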
TRPML1 blocker = qHTS for Inhibitors of the Human Mucolipin Transient Receptor Potential 1 (TRPML1) | TRPML1-inducible cells, Ca2+ dye fluorescence, FDSS; active compounds read low; inhibition of EC80 agonist-evoked calcium signal | AID 624415, 2012 | activity change, negative = inhibition, % (test concentration not listed) | Mucolipin-1 (Homo sapiens), Q9GZU1 | 0.02% of 390,000 active; in the data active means activity change below about -50%; inconclusive means about -30% to -50%; inactive means above about -30%;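 further: stimulus is agonist 54-4 at its EC80 concentration; on the % scale 0 is the no-effect control and ±100 the full control effect; compound concentration not given in the record; the text of the record puts the active cut at -80%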
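Calcium fluorescence in TRPML1-DL cells induced overnight with Tet: a 110 s read after compound pin addition, then a 110 s antagonist read after challenge with 54-4 at 4 uM final (EC80).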
TRPML1 ag = qHTS for Agonists of the Human Mucolipin Transient Receptor Potential 1 (TRPML1); Mucolipin-1 (Homo sapiens), Q9GZU1; 0.12% of 410,000 active; TRPML1-expressing cells, Ca2+ dye fluorescence, FDSS; host cell line not named in the record; reference of the full effect not given here; AID 624414, 2012; activation, % (no concentration beside the values); in the data active = activation above about 50%; inconclusive = about 30% to 50%; inactive = below about 30%; further: 0% is about no effect; the text of the record puts the active cut at 80%
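Calcium fluorescence on an FDSS kinetic reader gave the read-out. Tet-induced TRPML1-DL cells were plated overnight, dye-loaded (Ca8 with quencher, 45-90 min, room temperature, dark), then read 110 s after compound addition, and again 110 s after 4uM final 54-4 (EC80).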
The depositor's hits bear a star; ? = inconclusive; · = no result given.

Order of values: CtBP-E1A blk, TRPML1 ag, TRPV1 PAM, D2 potentiator, Six1-Eya2 inh, TRPML1 blocker
Cc1cc(C)cc(NC(=O)Nc2cccc(S(N)(=O)=O)c2)c1
 : -2, -0.2, 1, 0, 0, -9
CS(=O)(=O)Nc1cccc(NC(=O)c2cccc3c(-c4cccnc4)coc23)c1
 : ?, -0.4, ·, 7, ?, ·
C=CCn1c(SCC(=O)Nc2ccc(C(=O)O)cc2)nc2sc(C)c(C)c2c1=O
 : -20, 1.6, -1, -2, -3, 5
C=CCN=C(NC#N)SCC(=O)NCc1ccccc1
 : -2, 0.1, 5, -19, 0, -7
COc1ccc(Nc2c(CCc3ccccc3)nc3nc(C)cc(C)n23)cc1
 : -25, -0.9, ·, ·, -18, ·
COC(=O)c1ccc(Sc2ccccc2NS(=O)(=O)c2ccc(C)cc2)nc1
 : 2, -0.2, ·, -11, -1, 40
Cc1[nH]c(=O)[nH]c(=O)c1S(=O)(=O)N1CCN(c2ccccc2F)CC1
 : -14, 1.5, -5, -8, 4, -23
COCCNc1nc2ccccc2n2cnnc12
 : ·, 0.7, -9, -1, 1, 2
O=C(CC1C(=O)NCCN1C(=O)Nc1ccccc1)Nc1cc(Cl)ccc1Cl (stereo not drawn)
 : 3, -0.3, 8, -21, -2, 27
COc1ccc(/C=N/NC(=S)NCCc2ccccc2)cc1
 : ·, 3.2, 17, -11, -4, 34
Cc1cccnc1NC(=S)Nc1ccc(Br)cc1Cl
 : ·, 1.7, 3, -7, -9, 10
CN(/C=C/C(=C/C=[N+](C)c1ccccc1)OCCCS(=O)(=O)[O-])c1ccccc1
 : -13, 1.5, -1, -1, -2, -18
CCCCOC(=O)Nc1sc2nc(C)cc(C)c2c1-n1cccc1
 : -4, 1.0, 10, -28, 0, -16
CN1CCCC1CCNS(=O)(=O)c1ccc(Br)cc1 (stereo not drawn)
 : 0, -0.5, -18, -3, 4, 2
CCCCn1c(N)c(N(CC(C)C)C(=O)CN2C(=O)c3ccccc3C2=O)c(=O)[nH]c1=O
 : 6, 0.0, 19, -3, -2, -4
COc1ccccc1NC(=O)c1sc2nc(N3CCOCC3)c3c(c2c1N)CCCC3
 : 7, -0.2, -11, -7, -1, 6
CCC(CC)C(=O)N(C)c1c(C)nc2c(OCc3ccccc3OC)cccn12
 : 0, -1.1, ·, 3, 2, ·
Cc1ccc(S(=O)(=O)Nc2cccc(C(=O)N3CCC(C(N)=O)CC3)c2)cc1
 : ·, -0.1, -40, -4, 0, -21
O=C(c1csc(Nc2ccccc2Cl)n1)N1CCCC1
 : -6, 2.6, -11, -6, 0, 17
CCOc1ccc(S(=O)(=O)Nc2ccc(C(=O)NCC3CCCO3)cc2)cc1 (stereo not drawn)
 : 3, 1.3, 6, 3, 11, -1

Part of the list above in order of length of the SMILES, smallest number first.
Order of values: CtBP-E1A blk, TRPML1 ag, TRPV1 PAM, D2 potentiator, Six1-Eya2 inh, TRPML1 blocker
COCCNc1nc2ccccc2n2cnnc12
 : ·, 0.7, -9, -1, 1, 2
C=CCN=C(NC#N)SCC(=O)NCc1ccccc1
 : -2, 0.1, 5, -19, 0, -7
O=C(c1csc(Nc2ccccc2Cl)n1)N1CCCC1
 : -6, 2.6, -11, -6, 0, 17
COc1ccc(/C=N/NC(=S)NCCc2ccccc2)cc1
 : ·, 3.2, 17, -11, -4, 34
CCCCOC(=O)Nc1sc2nc(C)cc(C)c2c1-n1cccc1
 : -4, 1.0, 10, -28, 0, -16
Cc1cc(C)cc(NC(=O)Nc2cccc(S(N)(=O)=O)c2)c1
 : -2, -0.2, 1, 0, 0, -9
COc1ccc(Nc2c(CCc3ccccc3)nc3nc(C)cc(C)n23)cc1
 : -25, -0.9, ·, ·, -18, ·
CCC(CC)C(=O)N(C)c1c(C)nc2c(OCc3ccccc3OC)cccn12
 : 0, -1.1, ·, 3, 2, ·
COC(=O)c1ccc(Sc2ccccc2NS(=O)(=O)c2ccc(C)cc2)nc1
 : 2, -0.2, ·, -11, -1, 40
COc1ccccc1NC(=O)c1sc2nc(N3CCOCC3)c3c(c2c1N)CCCC3
 : 7, -0.2, -11, -7, -1, 6
Cc1[nH]c(=O)[nH]c(=O)c1S(=O)(=O)N1CCN(c2ccccc2F)CC1
 : -14, 1.5, -5, -8, 4, -23
Cc1ccc(S(=O)(=O)Nc2cccc(C(=O)N3CCC(C(N)=O)CC3)c2)cc1
 : ·, -0.1, -40, -4, 0, -21
CN(/C=C/C(=C/C=[N+](C)c1ccccc1)OCCCS(=O)(=O)[O-])c1ccccc1
 : -13, 1.5, -1, -1, -2, -18
CCCCn1c(N)c(N(CC(C)C)C(=O)CN2C(=O)c3ccccc3C2=O)c(=O)[nH]c1=O
 : 6, 0.0, 19, -3, -2, -4

Remaining list, next part
Order of values: CtBP-E1A blk, TRPML1 ag, TRPV1 PAM, D2 potentiator, Six1-Eya2 inh, TRPML1 blocker
CCOc1ccccc1Nc1cc(C)nc2nc(C)nn12
 : 4, 1.1, 5, 0, -1, -6
COc1cccc(N2CCN(Cc3cccnc3)CC2)c1
 : 2, -0.1, 7, -11, 1, -8
O=C(C[n+]1ccccc1)Nc1ccccc1C(F)(F)F
 : 14, 0.1, 0, -2, 2, 7
Cc1nc(N2N=C3/C(=C/c4ccc(F)cc4)CCCC3C2c2ccc(F)cc2)sc1C(=O)N(C)C (stereo not drawn)
 : 40, 5.0, -1, -31, 27, 8
CCc1nnc(NC(=O)c2cccnc2SC)s1
 : -4, 0.9, 3, -4, 4, 52
Cn1c(=O)cc(OCCCC(=O)Nc2cccnc2)c2ccccc21
 : 4, -1.0, 17, 2, -2, 2
O=C(c1ccccc1)N1CCn2c(nc3ccccc32)C1
 : 11, -0.3, -7, 10, 1, 23
CCOC(=O)N1CCN(C(=O)C[C@@H]2C[C@@]3(C(=O)OCC)CCC=C3N(Cc3cccc4ccccc34)C2=O)CC1
 : -7, -0.6, ·, ·, -6, ·
COc1ccc(OC)c(NC(=O)C2(C)CCN2CCOc2ccccc2)c1 (stereo not drawn)
 : -27, -0.1, ·, -26, -13, ·
CCOP(=O)(OCC)C(NC(=O)c1cccs1)C(F)(F)F (stereo not drawn)
 : -25, 0.6, 0, -4, -21, -3
N#Cc1nc(COc2ccccc2Cl)oc1NCc1ccc(F)cc1
 : -7, -0.5, -5, -8, -13, 3
Cc1cc(NC(=O)c2cccc(F)c2)ncc1NC(=O)c1ccco1
 : 0, -0.1, 27, 7, 0, -3
CCN(CC)C(=O)CC(c1ccc(F)cc1)c1ccco1 (stereo not drawn)
 : 5, -1.2, 0, -12, -4, 4
Cc1cccc(N2CCN(Cc3ccoc3)CC2)c1C
 : -4, 0.8, 1, -31, -7, -1
COc1ccc(S(=O)(=O)NCCSCc2ccco2)cc1C
 : 8, 0.2, ·, -8, -9, 3
COc1ccc2nc(C)cc(Nc3ccc(C)cc3)c2c1
 : -4, -0.6, -4, -10, -9, 16
Cc1cccc(N2CCN(Cc3ccc([N+](=O)[O-])o3)CC2)c1C
 : -7, 0.5, -13, -9, -9, -4
CCCn1c(=NC(=O)c2c(-c3c(F)cccc3Cl)noc2C)c(C(=O)OCC)cc2c(=O)n3ccccc3nc21
 : ·, 0.2, 5, ·, ·, 0
Cc1cccc(N2CCN(S(=O)(=O)c3ccc(Cl)nc3)CC2C)c1 (stereo not drawn)
 : 1, 1.5, ·, -8, 0, 9

Ordered by the number under Six1-Eya2 inh (smallest number first): 3 from the list above
Compound,Six1-Eya2 inh
Cc1cccnc1NC(=S)Nc1ccc(Br)cc1Cl,-9
O=C(c1ccccc1)N1CCn2c(nc3ccccc32)C1,1
CN1CCCC1CCNS(=O)(=O)c1ccc(Br)cc1 (stereo not drawn),4
